N370S GC = inhibitors or activators of N370S glucocerebrosidase for Gaucher disease; 330,000 compounds, 0.092% hits; Potency, µM (top dose mostly 59.4 µM), for the others: at the top dose activity change, negative = inhibition, actives largely listed as inhibitors; N370S GC spleen homogenate, 4MU-glucoside fluorescence; P04062; AID 2101;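 further: 0% = full enzyme activity and -100% = no enzyme basal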
TDP1 block = TDP1 (human) enzyme inhibition | Q9NUW8 | recombinant TDP1, AlphaScreen DNA substrate cleavage | Potency, µM (titrated, usually from 130 µM), without a hit: at the top dose activity change, negative = inhibition, actives largely listed as inhibitors | 350,000 compounds, 0.28% hits; further: nearly all actives have a fitted effect of over 40% in size
Target sequence (Q9NUW8 whole entry, looked up): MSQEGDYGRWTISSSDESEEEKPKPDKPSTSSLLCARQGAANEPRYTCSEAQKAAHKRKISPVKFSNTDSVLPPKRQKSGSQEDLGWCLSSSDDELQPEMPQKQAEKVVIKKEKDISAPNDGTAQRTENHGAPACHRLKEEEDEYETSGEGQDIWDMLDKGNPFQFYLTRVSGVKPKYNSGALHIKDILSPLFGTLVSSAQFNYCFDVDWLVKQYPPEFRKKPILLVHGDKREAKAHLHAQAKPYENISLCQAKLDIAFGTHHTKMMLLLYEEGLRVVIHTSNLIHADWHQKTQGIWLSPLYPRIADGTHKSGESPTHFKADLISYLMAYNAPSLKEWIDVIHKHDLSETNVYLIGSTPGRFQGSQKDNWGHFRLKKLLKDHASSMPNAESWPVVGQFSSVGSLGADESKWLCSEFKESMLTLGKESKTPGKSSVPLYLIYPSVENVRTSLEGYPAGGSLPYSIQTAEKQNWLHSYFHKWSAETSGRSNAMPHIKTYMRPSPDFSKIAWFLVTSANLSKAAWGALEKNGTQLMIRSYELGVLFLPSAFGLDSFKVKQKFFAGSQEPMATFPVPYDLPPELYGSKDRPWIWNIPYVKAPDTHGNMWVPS
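Here, a 5' biotin and 3' phosphotyrosine-FITC DNA oligonucleotide reports Tdp1 activity: intact substrate bridges AlphaScreen beads, while cleavage leaves a 3' phosphate and drops signal. All incubations at room temperature.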
Starred values were filed as active, the others as inactive; u = inconclusive; x = not tested or not shown; & = joins results of further samples; [ ] = another dose, or the depositor's remark. The call rests on the fitted dose curve; in most records, active means well fitted curve in the direction sought with a large enough effect; inconclusive means small, poorly fitted or top-dose-only effect, or another doubt; inactive means no such curve, though single readings can be large; an effect the other way counts as inactive or inconclusive. Unless noted, on the % scale 0 is the no-effect control and ±100 the full control effect; potency means the concentration at half of the fitted maximal effect.

Sample of the layout:
cpd | smiles | N370S GC | TDP1 block
1 | CC1CCCN(C(=O)COc2ccc(Nc3ccccc3)cc2)C1 (stereo unspecified) | -6% | 5%
2 | O=C(O)c1ccc2c(=O)n3c(nc2c1)/C(=C/c1ccc(Cl)c([N+](=O)[O-])c1)CC3 | -5% | 15%
3 | COc1ccccc1NS(=O)(=O)c1cccc(C(=O)N2CCN(C/C=C/c3ccccc3)CC2)c1 | -30% | 6%
4 | CC(C)CCNC(=O)CCCC1=NS(=O)(=O)c2ccccc2N1 | -4% | 3%
5 | CCOc1ccc(NC(=O)CN(C)C(=O)c2cccnc2SC)cc1OCC | u | 2%
6 | COc1cccc(C2NC(=O)NC(C)=C2C(=O)Nc2ccc(C)cc2)c1 (stereo unspecified) | 19% | 7%

All compounds of this part (from the top)
cpd | smiles | N370S GC | TDP1 block
1 | CC1CCCN(C(=O)COc2ccc(Nc3ccccc3)cc2)C1 (stereo unspecified) | -6% | 5%
2 | O=C(O)c1ccc2c(=O)n3c(nc2c1)/C(=C/c1ccc(Cl)c([N+](=O)[O-])c1)CC3 | -5% | 15%
3 | COc1ccccc1NS(=O)(=O)c1cccc(C(=O)N2CCN(C/C=C/c3ccccc3)CC2)c1 | -30% | 6%
4 | CC(C)CCNC(=O)CCCC1=NS(=O)(=O)c2ccccc2N1 | -4% | 3%
5 | CCOc1ccc(NC(=O)CN(C)C(=O)c2cccnc2SC)cc1OCC | u | 2%
6 | COc1cccc(C2NC(=O)NC(C)=C2C(=O)Nc2ccc(C)cc2)c1 (stereo unspecified) | 19% | 7%
7 | Cc1ccc(CN2CC(C(=O)NCC(=O)Nc3c(C)cccc3C)CC2=O)cc1 (stereo unspecified) | 2% | -2%
8 | Cc1ccc(NC(=O)Cn2cccc2)cc1C | 3% | 6%
9 | CCC(=O)c1ccccc1OCCCN1C(=O)NC(C)(C)C1=O | 0% | x
10 | CN(Cc1cnn(C)c1)Cc1nc(Cc2ccccc2Cl)no1 | 3% | -1%
11 | COc1cc(/C=C(\NC(C)=O)C(=O)Nc2ccc(NC(C)=O)cc2)ccc1OC(C)=O | -15% | 0%
12 | FCCCOc1ccc(-c2nccc(-c3ccc(Br)cc3)n2)cc1 | 2% | 0%
13 | N/C(=N\OC(=O)c1cccc([N+](=O)[O-])c1)c1ccccn1 | 0% | -6%
14 | COc1ccc(N=CC=C2OC(C)(C)C(C)(C)O2)cc1OC | 0% | 8%
15 | CN1C(=O)N(c2cccc3ccccc23)C(n2cncn2)C1(C)C (stereo unspecified) | 7% | 7%
16 | CCN(CC)S(=O)(=O)c1ccc(NC(=O)Nc2cccc(C(F)(F)F)c2)cc1 | -1% | 4%
17 | O=[N+]([O-])c1cc2c(cc1CN1CCN(c3ccccc3)CC1)OCO2 | -3% | x
18 | O=C(COc1cc2oc(=O)cc(-c3ccccc3)c2cc1Cl)NCc1ccccn1 | -4% | 0%
19 | O=C(CN1CCN(Cc2ccccc2Cl)C1=O)NCc1ccco1 | 0% | 5%
20 | CCCC(=O)NCCc1nc2ccccc2n1C | -1% | 5%
21 | N#C/C(=C\c1ccc(-c2cccc(C(F)(F)F)c2)o1)C(=O)Nn1cnnc1 | 7% | 2%
22 | CCCCN(C)C(=O)C1CCN(c2ccc(S(=O)(=O)N3CCOCC3)cc2[N+](=O)[O-])CC1 | -8% | 14%
23 | COc1cc(CN2CCC(n3nccc3NC(=O)CCCc3ccccc3)CC2)ccc1F | -7% | 0%
24 | Cc1ccccc1-n1c(SCC(=O)NCc2cccs2)nc2ccccc2c1=O | 7% | 3%
25 | Cn1c(=O)cc(OCCCC(=O)N2CCCCC2)c2ccccc21 | 4% | -1%
26 | O=C(Nc1ccc(NC(=O)c2cccs2)c(Cl)c1)c1ccco1 | -11% | 4%
27 | O=C(CCn1nnc2ccccc21)OCC(=O)c1ccc([N+](=O)[O-])cc1 | 2% | 2%
28 | O=C(Cn1nc(C(=O)O)c2ccccc2c1=O)Nc1ccc(Br)cc1 | -11% | 10%
29 | Cc1cc(C)c(S(=O)(=O)Nc2cccc3nsnc23)c(C)c1 | 7% | 1%
30 | CCNC(=O)CN(c1ccccc1)S(=O)(=O)c1ccc(Cl)cc1 | 10% | 6%
31 | O=C(C(NS(=O)(=O)c1cccs1)c1ccccc1)N1CCN(c2ccccc2F)CC1 (stereo unspecified) | 4% | 2%
32 | O=C(c1ccco1)N1CCCN(Cc2nc(Cc3ccccc3)no2)CC1 | -8% | 6%
33 | O=C(CCn1cnc2ccccc21)N/N=C/C=C/c1ccccc1 | 0% | x
34 | O=C(Nc1ccccc1)N1CCN(C2c3ccccc3-c3ccccc32)CC1 | -7% | 12%
35 | COc1cccc(C(=O)NC(c2ccccc2)C2CCCC2)c1 (stereo unspecified) | 29% | 0%
36 | COCCOc1cc(N2C(=O)CSCC2=O)c(Cl)cc1Cl | 6% | 1%
37 | Cc1ccc([C@@H]2[C@@H]3C(=O)N(c4ccccc4)C(=O)[C@@H]3[C@]3(Cc4ccccc4)C(=O)N(CC4CC4)CC(=O)N23)o1 | 0% | x
38 | COc1ccc(CNC(=O)C(c2ccco2)N(C(=O)c2ccccn2)c2ccccc2)cc1 (stereo unspecified) | -4% | 0%
39 | O=C(NC1CCCCC1)c1ccc(N2CCCC2=O)cc1 | -23% | 9%
40 | Cc1ccc(-c2ccc(/C=N/n3cnnc3)o2)cc1 | 8% | -4%
41 | O=C(Nc1ccc(SC(F)F)cc1)C1CC(=O)N(Cc2ccccc2)C1 (stereo unspecified) | -7% | -1%
42 | O=C(CNC(=O)c1cccs1)N/N=C/c1cccc(Br)c1 | -14% | 0%
43 | NS(=O)(=O)c1ccc(CCNC(=O)C2CCN(c3ncnc4c3nc3n4CCCCC3)CC2)cc1 | -1% | 0%&4%
44 | N#C/C(=C(/O)c1ccc2c(c1)OCO2)c1nc2cc(C(F)(F)F)ccc2s1 | 3% | x
45 | O=S(=O)(CCN1CCSCC1)c1ccc(Cl)cc1 | 3% | -4%
46 | O=C(CCc1cn2ccccc2n1)NC1CCCc2c1cnn2-c1ccccc1F (stereo unspecified) | -24% | 3%
47 | O=c1c2cc(NC(=S)N3CCCCCC3)ccc2nc2n1CCCCC2 | 3% | 1%
48 | CCCN(CC(=O)Nc1ccccc1C)C(=O)c1ccc(N2CCCCCC2)c([N+](=O)[O-])c1 | 1% | 8%
49 | CC(NC(=O)CCNS(=O)(=O)c1ccccc1)c1ccccc1 (stereo unspecified) | -5% | 0%
50 | CCC(C)NC(=O)CCn1ccc2cc(S(=O)(=O)N3CCCC3)ccc21 (stereo unspecified) | -21% | 2%

Later entries:
cpd | smiles | N370S GC | TDP1 block
51 | CCOC(=O)C1CCN(C(=O)c2sc3nc(-c4ccc(F)cc4)cn3c2C)CC1 | 4% | 1%
52 | CC(=O)Nc1cccc(NC(=O)CCN2C(=O)c3ccccc3S2(=O)=O)c1 | 0% | x
53 | COc1ccc(-n2ncc(C(=O)N3CCN(c4ccc(F)cc4)CC3)c2C)cc1 | -5% | x
54 | C=CCn1c(CCC)nc2ccccc21 | 0% | 4%
55 | CCOc1nc(NC2CCCCC2)nc(NC(C)(C)C)n1 | 2% | 1%
56 | CC(=O)c1ccc(S(=O)(=O)N2CCC(c3nc4ccccc4[nH]3)CC2)cc1 | -6% | 4%
57 | CCO[C@H]1OC(C(=O)N2CCN(C)CC2)=C[C@@H](c2csc3ccccc23)[C@@H]1CCCO | 1% | 1%
58 | O=C(NNC(=O)C1CCN(c2ncccn2)CC1)c1ccccc1 | 1% | 3%
59 | Clc1ccc(CNc2ccccc2NCc2ccc(Cl)nc2)cn1 | -10% | 6%
60 | O=C(O)C1C2C=CC3(CN(Cc4ccccn4)C(=O)C13)O2 (stereo unspecified) | 5% | 0%
61 | Cc1cccc(C)c1NC(=O)CN(C)C(=O)c1ccc(N2C(=O)CCC2=O)cc1 | 2% | -11%
62 | Nc1ccc(C(=O)c2cccs2)cc1[N+](=O)[O-] | 9% | 2%
63 | N#CCCN(Cc1ccccc1)C(=S)Nc1ccc(F)cc1 | 21% | -3%
64 | COc1ccc(NCc2nnc(SCC(=O)Nc3ccccc3OC)o2)cc1 | 3% | 5%
65 | CCOC(=O)C1=C(CN2CCN(C(=O)c3ccco3)CC2)NC(=O)NC1c1ccc(Cl)cc1 (stereo unspecified) | -3% | 6%
66 | COc1ccccc1Cc1nnnn1CC(=O)O | 1% | -1%
67 | CCc1onc(C)c1C(=O)Nc1cc(C)ccc1OC | 5% | 4%
68 | Cc1cccc(C)c1OCC(=O)Nc1ccc2c(c1)C(=O)NC2=O | 2% | 2%
69 | Cc1ccc(NC(=O)CCn2cnc3ccccc3c2=O)cc1 | 7% | -1%
70 | CCOc1ccccc1NC(=O)CSc1nnnn1-c1ccc(C(=O)OC)cc1 | 9% | 1%
71 | COc1ccccc1CCN=C(N)NS(=O)(=O)c1cc(F)ccc1F | -2% | 0%
72 | CCOc1ccc(CCNC(=O)C2CCN(c3nn4c(=O)cc(C)nc4s3)CC2)cc1OCC | -6% | 2%
73 | NC(=S)Nc1cccc2[nH]ncc12 | -4% | 1%
74 | CN(C)CCn1c2c(c(SCC(=O)Nc3cccc(C(F)(F)F)c3)nc1=O)CCCC2 | -10% | 7%
75 | Nc1nnnn1/N=C/c1ccccc1C(F)(F)F | 10% | 3%
76 | CCc1ccc(NC(=O)Cn2nnc(C(=O)NCc3ccco3)c2N)cc1 | -15% | -2%&0%
77 | O=C(Oc1c(Br)cc(Br)c2cccnc12)N1CCCCC1 | 7% | 2%
78 | CCn1c(SCC(=O)NNC(=S)Nc2ccccc2)nnc1-c1ccc(Cl)cc1 | 7% | 7%
79 | COCc1[nH]nc2c1C1(CCSCC1)C(C#N)=C(N)O2 | 0% | 5%
80 | COc1ccc(/C=C(\C#N)C(=O)Nc2ccccn2)cc1 | -23% | x
81 | O=C(O)c1c2c(nc3ccccc13)/C(=C/c1ccc(O)cc1)CC2 | -7% | u
82 | Cc1cccc(CSCCNC(=O)CN2C(=O)c3ccccc3S2(=O)=O)c1 | 6% | x
83 | CCOC(=O)c1nnc(-c2ccccc2)nc1Oc1ccc(Cl)cc1 | -1% | -8%
84 | Cc1ccccc1NC(=O)Cc1nc(CN(C)CC(=O)Nc2cccc(F)c2)cs1 | x | 1%
85 | COc1ccc(CNCc2ccc([N+](=O)[O-])cc2)cc1OC | -2% | x
86 | Cc1ccn(CCSCC(=O)O)n1 | 2% | 0%
87 | COc1ccc(/C=C(/C#N)C(=O)Nc2ccc(C)cc2C)cc1C(=O)O | 2% | -1%
88 | C=CC(=O)NC(C)(C)Cc1ccccc1 | 3% | 4%
89 | COc1cc(CN2CCN(C(=O)c3ccccc3F)CC2)cc(OC)c1OC | -8% | 6%
90 | CC(C)[C@@H]1NC(=O)c2cc([N+](=O)[O-])cc(I)c2NCCC[C@@H](C(N)=O)NC(=O)[C@H](CO)NC1=O | -5% | 1%
91 | Cc1ccc(NC(=O)c2nsc(Cl)c2Cl)cc1 | 2% | 8%
92 | N#Cc1ccccc1OCC(=O)NNC(=O)CNC(=O)c1cccc(Br)c1 | x | 0%[56.1 µM]
93 | CCOc1ccc2nc(COC(=O)c3cccs3)c(C(=O)c3ccccc3)[n+]([O-])c2c1 | -7% | 2%
94 | Cc1ccc(NC(=O)O/N=C/c2c(C)nn(C(C)(C)C)c2C)cc1Cl | 7% | 3%
95 | CCOC(=O)Cn1ccc(NC(=O)c2ccc(F)cc2)n1 | -22% | x
96 | CCOC(=O)c1ccc(Cl)c(S(=O)(=O)N2CCCC2)c1 | 8% | -5%
97 | O=C(O)/C=C/C(=O)Nc1ccc(F)cc1F | 13% | 6%
98 | Cc1ccc(C2CC(C(F)(F)F)n3nc(C(=O)NCc4ccco4)cc3N2)cc1 (stereo unspecified) | -7% | 6%
99 | COc1ccc(C(=O)Nc2ccccc2C(=O)N/N=C/c2ccccn2)cc1OC | 15% | 9%
100 | [O-]C1=N/[N+](=C/c2ccc(Cl)cc2)CC1 | 10% | 5%

New compounds follow.
cpd | smiles | N370S GC | TDP1 block
101 | CC(C)C[C@H](NC(=O)OC(C)(C)C)C(=O)N1CCC(C(=O)O)CC1 | 1% | 1%
102 | CC1CCc2c(nc3ncnn3c2N2CC(C)OC(C)C2)C1 (stereo unspecified) | -19% | 6%
103 | COc1ccc(C(CNC(=O)Cc2ccccc2F)N2CCCCC2)cc1 (stereo unspecified) | -4% | 5%
104 | O=C(c1ccc(Br)s1)N1CCN(c2ncccn2)CC1 | 3% | -1%
105 | CCn1c(=O)c(C(=O)NNC(=O)c2ccccc2Br)c(O)c2ccccc21 | -9% | 6%
106 | O=C(N1CCCCC1)C1(S(=O)(=O)c2ccccc2)CC=CC1 | -18% | x
107 | CC(C)OC(=O)C1C(=O)CC(C)(O)C(C(=O)OC(C)C)C1c1ccc([N+](=O)[O-])cc1 (stereo unspecified) | -8% | 0%
108 | CCN(CC)S(=O)(=O)c1cccc(C(=O)NN2Cc3ccccc3C2=N)c1 | 8% | 3%
109 | O=S(=O)(c1ccccc1)c1nc(Nc2ccccc2N2CCOCC2)sc1Cl | 0% | 6%
110 | C=CCc1ccc(OCc2ccc(C(=O)OC)o2)c(OC)c1 | 8% | 6%
111 | COC(=O)c1ccccc1NC(=O)C1(S(=O)(=O)c2ccc(Cl)cc2)CC1 | 0% | 7%[0.0935 µM]
112 | S=C(Nc1ccc(Nc2ccccc2)cc1)NN1CCOCC1 | -2% | 8%
113 | CCOC(=O)c1ccc(NC(=S)NC(=O)c2cncc(Br)c2)cc1 | -7% | x
114 | Cc1ccc(CCNC(=O)C2CC(=O)N(C3CCCCC3)C2)cc1 (stereo unspecified) | -2% | 0%
115 | COc1ccc(C(=S)N2CCN(c3ccccc3Cl)CC2)cc1OC | 2% | 6%

Assay outcomes from PubChem.

This is a subset; most or all hits stand in other tables.
